Screening data from PubChem BioAssay.
HCMV UL50-53 inh = disrupts HCMV UL50-UL53 complex binding; HTRF UL50-UL53 interaction, normalized percent inhibition; inhibition, % (concentration not given with the values); actives 0.15% (n = 190,000); AID 1918969;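 active means both replicates at 50% or more, plus weaker picks with an unusually low signal ratio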;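 further: stock transfer was 100 nL into about 20 µL; 0% = negative control wells and 100% = wells with untagged competitor protein; inactives centre near -12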
GIV-Gai inh = blocks GIV peptide binding to rat Galpha-i3; percent of control (FP), % (no concentration beside the values); AID 1224905; Galpha-i3/FITC-GIV peptide fluorescence polarization, 90 min; active compounds read low; scaled: aluminum fluoride 0%, vehicle 100%; actives 0.42% (n = 210,000);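 active means replicate mean at 85% of control or lower, very high polarization wells dropped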;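 further: wells of about 15 µL received 100 nL stock; the first replicate is given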
Target sequence (P08753 whole entry, looked up): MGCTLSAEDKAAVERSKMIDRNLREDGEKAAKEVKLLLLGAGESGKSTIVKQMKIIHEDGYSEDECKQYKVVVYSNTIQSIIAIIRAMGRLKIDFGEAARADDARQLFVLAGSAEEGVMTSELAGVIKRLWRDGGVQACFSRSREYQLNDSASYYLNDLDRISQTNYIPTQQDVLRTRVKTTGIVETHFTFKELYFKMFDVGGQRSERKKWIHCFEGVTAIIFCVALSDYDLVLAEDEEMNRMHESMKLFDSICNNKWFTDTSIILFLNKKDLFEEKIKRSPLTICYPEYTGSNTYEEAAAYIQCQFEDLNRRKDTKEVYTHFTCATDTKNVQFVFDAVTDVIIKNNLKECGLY
Sa growth 42C = blocks Staphylococcus aureus growth. actives 0.53% (n = 170,000). relative growth, % (no concentration beside the values). S. aureus RN4220 growth, OD600, 20 h, 42 °C; active compounds read low;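 active means growth at 42 °C up to 50% and 20 or more points under that at 30 °C, or under 10% at both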;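 further: 300 nL library stock went into each well; scaled to the means of positive and negative controls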
Sa growth 42C second temp = further read-out of Sa growth 42C, marked with its call; relative growth, %; measured here: growth at 30 °C;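 optical density after 20 h as mean of two plates; 100% = untreated growth and lower means inhibition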
An asterisk follows results filed as active; / = not tested or not shown; & = joins results of further samples. Rows were taken by chance, and some 0.83% of all compounds hit somewhere here.

SMILES	HCMV UL50-53 inh	GIV-Gai inh	Sa growth 42C	Sa growth 42C second temp
O=C(NCC1CCCO1)N1CCOCC1 (stereo not given)	-12	100	90	93
Cc1cccc(NC(c2cccnc2)c2c(NC(=O)c3ccccc3)sc(C)c2C)n1 (stereo not given)	-27	110	/	/
O=C(CCc1ccc(S(=O)(=O)N2CCCCCC2)cc1)NC1=NCCS1	14	/	96	93
O=C(COC(=O)/C=C/c1ccccc1)NC1CC1	-31	/	89	96
Cc1ccc(C(C)C)c(OCC(=O)Oc2cccc(-n3cnnn3)c2)c1	-38	106	/	/
CCN(CC)S(=O)(=O)c1ccc(-c2csc(=Nc3ccc(C)cc3)n2C)cc1	/	109	75	90
O=S(N=C(c1ccccc1)c1ccccc1)c1ccccc1 (stereo not given)	-4	105	110	105
O=C(C1CCN(S(=O)(=O)c2ccc3nc(-c4ccccc4)[nH]c3c2)CC1)N1CCCCC1	13	107	103	100
Cc1[nH]c2ccccc2c1/C=N\NC(=O)Cn1nnc(-c2ccccc2)n1	-22	103	62	71
Cc1ccc(C)c(S(=O)(=O)N/N=C/c2ccc3c(c2)OCO3)c1	-20	/	108	96
CCOC(=O)C1CCCN(C(=O)c2ccc(CS(=O)(=O)Cc3ccccc3C)o2)C1 (stereo not given)	-15	104	109	93
COc1ccc(-n2ncc3c2ncn2nc(COc4ccccc4C)nc32)cc1	-5	100	99	87
O=C(c1ccccc1)n1nc(-c2ccccc2)nc1NCc1ccc(F)cc1	-3	96	97	93
CCOc1ccc(NC(=O)Cn2c(=O)n(CC3CCC(C(=O)NCCc4ccccc4)CC3)c(=O)c3ccccc32)cc1 (stereo not given)	-8	105	107	95
COc1ccc(CCNC(=O)C2CCN(c3ccc(N4CCOCC4)nn3)CC2)c(OC)c1	/	103	91	91
O=C(NCCN1Cc2ccccc2C1=O)Nc1cccc(Cl)c1	5	/	94	84
COc1cc2nc(NCCC(C)C)n3nc(-c4ccccc4)nc3c2cc1OC	0	105	110	79
CCSc1nn(CC(=O)Nc2cc(C)cc(C)c2)c(N)c1S(=O)(=O)c1ccc(OC)cc1	-25	101	/	/
NCc1csc(-c2ccccc2)n1	8	/	87	96
ON(Cc1ccccc1)Cc1ccccc1	-6	107	83	85
N#Cc1c(OCC(F)(F)F)ccc(C(N)=O)c1OCC(F)(F)F	0	108	114	90
O=c1nc(NC2CCCC2)ccn1Cc1cccc(Br)c1	-4	/	101	91
Cc1ccc(CNC(=O)c2oc3ccc(S(=O)(=O)N4CCC(C)CC4)cc3c2C)cc1	-16&7	108&107	99	100
CCn1cc2c(n1)-c1c(oc(C(=O)NCc3cccnc3)c1C)CC2	/	83*	93	83
CC(C)(C)c1nc2c(o1)OC(N)=C(C#N)C2c1ccc(Cl)cc1Cl (stereo not given)	-14	/	95	77
C=C[C@]1(C)C=C2CC[C@@H]3[C@](C)(CCC[C@@]3(C)C(=O)O)[C@H]2CC1O (stereo not given in full)	-2	/	98	99
COc1nc(N(C)S(=O)(=O)c2ccc(C)cc2)nc(C)c1Br	-14	104	/	/
O=C(/C=C/N1CCOCC1)c1ccc(Cl)cc1	/	105	122	79
CCOC(=O)N1CCC(N2Cc3cccc(C(=O)NCCCN4CCCC4=O)c3C2=O)CC1	-10	100	97	87
CCCC(=O)Nc1ccc(NC(=O)c2sc3ccccc3c2Cl)cc1	-22	116	110	104
Cc1ccc(NC(=O)CSc2nc3ccccc3c(=O)n2CCC(=O)NC2CCCCC2)cc1C	/	103	127	99
CC(=O)N1CCC(N(C(=O)Nc2ccc(C)c(C)c2)C(C)C)CC1	-10	97	93	95
COCCNC(=O)CN1C(=O)COc2ccccc21	-14	101	97	89
CCOC(=O)N1CCC(NC(=O)CNC(=O)c2cccs2)CC1	-13	99	98	90
CC(c1cccs1)N(Cc1ccco1)C(=S)Nc1cc(F)cc(F)c1 (stereo not given)	-15	107	86	61
CCOc1ccc(CCNc2nc3c(-c4ccc(C)cc4)nnn3c3ccccc23)cc1OCC	-38	105	100	87
O=C(NCc1ccccc1Cl)c1cnc2sc(N3CCOCC3)nn2c1=O	/	100	92	91
CCOC(=O)N1CCC(NC(=O)Cc2cn(C)c3ccccc23)CC1	-8	98	84	94
Cc1cn2c(=O)c(S(=O)(=O)Nc3ccc(N4CCOCC4)cc3)c(C)nc2s1	/	113	106	99
COc1ccccc1-c1oc2ccccc2c(=O)c1O	-2	102	99	102

The last 2 records of the part before are carried over, then new ones follow.
SMILES	HCMV UL50-53 inh	GIV-Gai inh	Sa growth 42C	Sa growth 42C second temp
Cc1cn2c(=O)c(S(=O)(=O)Nc3ccc(N4CCOCC4)cc3)c(C)nc2s1	/	113	106	99
COc1ccccc1-c1oc2ccccc2c(=O)c1O	-2	102	99	102
c1ccc(-c2nnc(CN3CCN(c4ccccn4)CC3)o2)cc1	-9	108	102	86
Cc1ccc(C2CCCN2S(C)(=O)=O)cc1 (stereo not given)	-28	97	/	/
CN(C(=O)Nc1ccc(C(C)(C)C)cc1)C1CCCCC1	19	105	104	98
Cc1coc2cc3oc(=O)c(CCC(=O)NCc4ccccc4Cl)c(C)c3cc12	-13	98	97	89
CC(C)OC(=O)CSc1nnc(-c2ccccc2)o1	/	107	87	104
CCOC(=O)c1ccc(NC(=O)C(CC)Sc2nnc3c4ccccc4n(C)c3n2)cc1 (stereo not given)	-24	109	97	99
Cc1ccc(N(C(=O)c2ccccn2)C2(C(=O)NC3CCCC3)CCCCC2)cc1	-6	94	/	/
CC(C)NC(=O)CC(c1cccs1)N1Cc2ccccc2C1=O (stereo not given)	-21	103	84	82
O=C(CSc1nnc(-c2cccs2)o1)NCC1CCCCC1	-11	/	100	95
Clc1ccc(OCc2nc3c4cnn(-c5ccc(Cl)cc5)c4ncn3n2)cc1	/	101	86	86
O=C(Cc1ccccc1)Nc1ccccc1F	-6	100	100	82
O=C(COC(=O)c1n[nH]c2ccccc12)NC1CC1	-8	/	103	84
CCN1C(=O)c2c(C(=O)NC(C)(C)C)ncn2CC1(C)C(=O)NC1CCCC1 (stereo not given)	-19	106	/	/
O=C(NCCN1CCOCC1)C1CCC(=O)N1Cc1ccc(F)cc1 (stereo not given)	3	94	89	88
CCc1cc(C(=O)NCc2ccc(F)cc2)no1	0	99	92	89
O=C(Nc1ccccc1C(F)(F)F)c1noc2c1CCCCC2	-27	98	96	82
Cc1ccc(C2C(C(=O)/C=C/c3ccccc3)=C(O)C(=O)N2CCO)cc1 (stereo not given)	-100	98	121	80
Cc1cc(C)n(-c2nc(C)c(C)c(=O)n2CC(=O)Nc2ccc(Cl)c(Cl)c2)n1	/	97	112	86
Clc1cccc(-c2csc(-c3nc(-c4ccc(Br)s4)cs3)n2)c1	-6	99	93	90
COc1ccc(-c2cc(C(F)(F)F)n3nc(C(=O)NCCCN4CCOCC4)c(Cl)c3n2)cc1	-82	92	/	/

Already shown: five of the compounds above.
SMILES	HCMV UL50-53 inh	GIV-Gai inh	Sa growth 42C	Sa growth 42C second temp
O=C(Nc1ccccc1C(F)(F)F)c1noc2c1CCCCC2	-27	98	96	82
Cc1ccc(C2C(C(=O)/C=C/c3ccccc3)=C(O)C(=O)N2CCO)cc1 (stereo not given)	-100	98	121	80
Cc1cc(C)n(-c2nc(C)c(C)c(=O)n2CC(=O)Nc2ccc(Cl)c(Cl)c2)n1	/	97	112	86
Clc1cccc(-c2csc(-c3nc(-c4ccc(Br)s4)cs3)n2)c1	-6	99	93	90
COc1ccc(-c2cc(C(F)(F)F)n3nc(C(=O)NCCCN4CCOCC4)c(Cl)c3n2)cc1	-82	92	/	/

Later entries
SMILES	HCMV UL50-53 inh	GIV-Gai inh	Sa growth 42C	Sa growth 42C second temp
Cc1cc2cc(CNC(=S)Nc3cccc(C)c3C)ccc2[nH]1	/	100	106	59
C#CCOC(=O)Nc1nc(C)oc1C(F)(F)F	5	105	102	100
NC(/C=C/c1cc(C(F)(F)F)cc(C(F)(F)F)c1)=N\O	-40	93	86	73
COc1c(C)cnc2c1c(=O)n(CC(=O)NC(C)(C)C)c(=O)n2C	4	103	/	/
COc1ccc(/C=N/n2c(C)cc(C)cc2=O)cc1	/	104	92	78
CCc1ccc(-n2c(SCc3nnc(-c4cccs4)o3)nc3ccccc3c2=O)cc1	-1	/	85	94
COC(=O)c1ccc(NC(=O)N2CCC(CN3CCc4ccccc4C3)CC2)cc1	/	107	81	80
C=CCC(c1cc(Cl)ccc1N)S(=O)(=O)c1ccc(C)cc1 (stereo not given)	-7	/	95	108
Cc1ccc(NC(=O)N2CCN(Cc3nc(-c4ccccc4)oc3C)CC2)cc1C	-6	100	/	/
CCOC(=O)c1c(C)c(C(=O)N2CCCCCC2)c(C)n1C	-19	102	106	91
COc1cc(OC)cc(C(=O)n2nc(C)c(-c3ccccc3)c2N)c1	-3	102	90	92
CCCCNc1oc(-c2ccc(COc3ccccc3C)o2)nc1C#N	17	105	122	79
CCOC(=O)CSc1nc2c(sc3cccc(F)c32)c(=O)n1Cc1ccc(OC)cc1	/	104	113	87
O=C(Cn1c2ccccc2c(=O)c2cc([N+](=O)[O-])ccc21)Nc1cccc(Cl)c1	-11	110	/	/
CC1CCN(C(=O)CN2C(=O)CSc3ncccc32)CC1	-16	106&100	93	91
Cc1cc(/C=C2\NC(=O)NC2=O)c(C)n1-c1cccnc1	-70	104	92	81
N#Cc1cc2c(nc1SCCS(=O)(=O)Cc1ccc(Cl)cc1)CCCC2	/	101	113	87
CCCN1CCN(CCCNC(=O)C2=C(C)C(=O)OC23CCN(C(C)=O)CC3)CC1	-10	100	/	/
O=C(NC1CCS(=O)(=O)C1)C1CCN(c2nccc(C(F)(F)F)n2)CC1 (stereo not given)	1	103	97	98
Cn1cnc(S(=O)(=O)N2CCC(C(=O)Nc3cccc4c3CCCC4)CC2)c1	-8	115	/	/

Filtered by structure: those above with a furan ring, fused or not
SMILES	HCMV UL50-53 inh	GIV-Gai inh	Sa growth 42C	Sa growth 42C second temp
CCOC(=O)C1CCCN(C(=O)c2ccc(CS(=O)(=O)Cc3ccccc3C)o2)C1 (stereo not given)	-15	104	109	93
Cc1ccc(CNC(=O)c2oc3ccc(S(=O)(=O)N4CCC(C)CC4)cc3c2C)cc1	-16&7	108&107	99	100
CCn1cc2c(n1)-c1c(oc(C(=O)NCc3cccnc3)c1C)CC2	/	83*	93	83
CC(c1cccs1)N(Cc1ccco1)C(=S)Nc1cc(F)cc(F)c1 (stereo not given)	-15	107	86	61
Cc1coc2cc3oc(=O)c(CCC(=O)NCc4ccccc4Cl)c(C)c3cc12	-13	98	97	89
CCCCNc1oc(-c2ccc(COc3ccccc3C)o2)nc1C#N	17	105	122	79

Following part.
SMILES	HCMV UL50-53 inh	GIV-Gai inh	Sa growth 42C	Sa growth 42C second temp
CCCCNc1nc2c(-c3cccc(Br)c3)nnn2c2ccccc12	-18	107	117	85
COc1ccc(C2SCCN2S(=O)(=O)c2ccc(NC(C)=O)cc2)cc1OC (stereo not given)	-9	104	106	79
Cn1c(SCc2ccccc2)nnc1C1CCCNC1 (stereo not given)	14	99	95	88
O=c1sc(N2CCN(c3ccccc3F)CC2)nc2ccsc12	-6	103	91	90
CCc1nnc(NC(=O)c2nc(SCc3cccc(C)c3)ncc2Cl)s1	-19	100	103	89
CC(=O)Nc1nc2cc(NC(=O)c3n[nH]c4c3CCCC4)ccc2s1	-13	102	/	/
C1=CC2/C(=N\Nc3ccccn3)CC2C1 (stereo not given)	-6	/	71	80
Cc1ccccc1OCC(O)Cn1c(NCCCn2ccnc2)nc2c1c(=O)n(C)c(=O)n2C (stereo not given)	-4	101	/	/
CCCOc1cccc(C2c3c(-c4ccccc4O)n[nH]c3C(=O)N2Cc2ccco2)c1 (stereo not given)	0	101	93	65
COC(Cn1c(-c2cccc(S(=O)(=O)N(C)C)c2)nn(CN2CC(C)CC(C)C2)c1=S)OC (stereo not given)	-7	/	101	90
CSc1ncc(C(=O)N2CCN(c3cc(Cl)ccc3C)CC2)c(C)n1	/	106	102	88
O=C(Nc1ccc(Cl)cc1)N1CCOC1c1cccs1 (stereo not given)	-24	106	103	88
O=C(Nc1ccccc1)C1c2cccc[n+]2CC(=O)N1c1ccccc1 (stereo not given)	/	107	85	71
O=C1/C(=C\c2ccccc2)N=C(c2ccccc2)N1c1ccccc1	-6	99	98	90
Oc1ccccc1C=Nc1cc(C(F)(F)F)ccc1Cl	/	106	116	95
CCn1c(=O)cc(SCC(=O)N2CC=C(c3ccccc3)CC2)c2ccccc21	-17	102	/	/
